High-throughput results (PubChem BioAssay)
Rango dissoc inh – inhibitors of RanGTP-induced Rango-importin beta complex dissociation; 0.071% of 340,000 active; Potency, µM (top dose mostly 46.1 µM), for the others: at the highest dose activity change, negative = inhibition; Biochemical FRET Rango-importin beta, RanGTP-induced dissociation; active means falling FRET ratio curve, often poorly fitted, with flat reads before Ran was added; inconclusive means other falling curves, or compound fluorescence or quenching; inactive means flat or rising ratio curve;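 further: potency means the concentration at half of the fitted maximal effect; % of control where 0% means no effect; nearly all actives have a fitted effect of over 45% in size; -100% = wells without RanGTP and RCC1; the record marks most hits as doubtful in a second field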
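Quantitative HTS using a FRET biosensor: 0.1 uM Rango, 0.25 uM importin beta, 0.6 uM Ran, 2 mM GTP, 0.2 uM RCC1 final, PBS with DTT, Tween-20 and BSA. Post-read taken 45 min after Ran addition.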
Rango complex inh – inhibitors of Rango-importin beta complex formation; Rango CFP/YFP FRET sensor + importin beta, 45 min; Potency, µM (highest dose often 92.2 µM), inactives show at the top dose inhibition of complex formation; 0.031% of 340,000 active; active = rising FRET ratio curve, often small or poorly fitted; inconclusive = mostly compound fluorescence or quenching in the first reads; inactive = flat curves in all reads;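 further: potency means the concentration at half of the fitted maximal effect; 0% = DMSO wells and 100% = buffer wells lacking importin beta; nearly all actives have a fitted effect of over 15% in size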
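FRET biosensor Rango (snurportin 1 IBB between N-terminal EYFP and C-terminal Cerulean), 50 nM in PBS/1 mM DTT/0.02% Tween-20/0.1% BSA, preincubated 5 min RT with compound; 0.125 microM importin beta added, 45 min RT, CFP/YFP FRET ratio read.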
GLA inh pH 4.5 – inhibitors of human alpha-galactosidase A at pH 4.5 | purified enzyme, 4-MU-alpha-Gal fluorescence, pH 4.5 | P06280 | activity change, negative = inhibition, % at 105 µM | AID 1467 | 230,000 tested, under 10 active; inconclusive = small, poorly fitted or top-dose-only inhibition, or a rising curve; inactive = flat fitted curve, though single readings scatter; no compound was filed as active;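 further: 0% = full activity with enzyme and -100% = basal without enzyme; dose as in the result columns while the protocol names 77 µM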
Target sequence (P06280 whole entry, looked up): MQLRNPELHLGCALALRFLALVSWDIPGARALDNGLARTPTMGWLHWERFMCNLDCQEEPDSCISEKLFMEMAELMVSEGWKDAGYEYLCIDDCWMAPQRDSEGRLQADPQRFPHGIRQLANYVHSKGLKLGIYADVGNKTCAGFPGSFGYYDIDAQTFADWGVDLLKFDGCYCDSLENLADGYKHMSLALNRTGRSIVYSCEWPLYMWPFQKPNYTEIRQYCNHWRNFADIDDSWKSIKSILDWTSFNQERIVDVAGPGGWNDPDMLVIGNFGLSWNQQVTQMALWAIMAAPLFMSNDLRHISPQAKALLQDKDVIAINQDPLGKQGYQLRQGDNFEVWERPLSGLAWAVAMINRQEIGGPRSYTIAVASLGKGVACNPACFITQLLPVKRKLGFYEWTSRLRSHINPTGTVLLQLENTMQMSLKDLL
miR-21 FLuc – raises the signal of a miR-21 reporter; HeLa miR-21 FLuc reporter, luciferase, 48 h; Potency, µM (highest dose often 38.3 µM), for inactives: at the highest dose reporter change, positive = more light; 340,000 tested, under 10 active; active = well fitted rising curve with a large enough effect; inconclusive = small, poorly fitted or top-dose-only effect; inactive = no such curve, though single readings can be large or run the other way;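 further: % of control where 0% means no effect; miR-21 action dims this reporter so a rising signal means less miR-21 action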
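Luminescence from a firefly luciferase reporter carrying a miR-21 binding site downstream, stably expressed under a CMV promoter in HeLa cells that make miR-21 endogenously, reports miRNA modulation after 48 h compound exposure up to approximately 40uM final.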
The depositor's hits bear a star; ? = inconclusive; / = no result given; & = joins results of further samples; [ ] = remark or other dose. Only part of the results is shown; rates above refer to the full screens.

Below each SMILES – Rango dissoc inh, Rango complex inh, GLA inh pH 4.5, miR-21 FLuc
#1 O=C(NCc1ccco1)C1CCCN1C(=O)Nc1ccc(Cl)cc1 (stereo not given)
 : -1%, 0.3%, -2, -1%
#2 CCc1ccc(N(CC(=O)Nc2sc3c(c2C(=O)OC)CCCC3)S(C)(=O)=O)cc1
 : -7%, ?, -8, -4%
#3 CCc1ccc(OCC2c3cc(OC)c(OC)cc3CCN2C(=S)NCCOC)cc1 (stereo not given)
 : 3%, -0.3%, -10, -10%
#4 S=c1[nH]nc(COc2ccc(Cl)cc2)n1Cc1ccco1
 : -9%, 2.1%, -4, -8%
#5 CC(=O)Nc1nnc(CCS(=O)(=O)c2ccc(C)cc2)s1
 : 12%, 1.1%, /, /
#6 CCCCOCCCNC(=O)c1ccc(NC(C)=O)cc1
 : -10%, -1.1%, 0, -2%
#7 COc1ccc(CSc2nncn2N)cc1Br
 : 4%, 0.3%, 3, -15%
#8 CCc1nnc(NC(=O)CCC(=O)N2CCN(Cc3cc(F)ccc3OC)CC2)s1
 : -3%, -0.2%, 1, -9%
#9 c1ccc2[nH]c(CN3CCCCC3)nc2c1
 : -7%, ?, 14, 1%
#10 Cc1ccc(NC(=O)C(Nc2ccccc2)c2ccccc2)cc1 (stereo not given)
 : 5%, 0.3%, -1, -16%
#11 CN(C)c1ncc(S(=O)(=O)c2ccc(Cl)cc2)c(-c2ccc(Cl)cc2Cl)n1
 : -6%, 0.3%, -21, -2%
#12 C/C(=N/NC(=O)c1ccco1)c1ccc(Br)s1
 : 9%, -3.7%, /, -30%
#13 COc1ccc(/C(C)=N/Nc2ccccc2Cl)c(O)c1
 : 8%, -0.1%, 0, -62%
#14 COc1ccc(-c2nc(CSCC(=O)N3CCN(C(=O)c4ccco4)CC3)c(C)o2)cc1OC
 : -3%, -4.2%, -12, -6%
#15 CCOC(=O)C1CCN(C(=O)CCNC(=O)Cn2ccc3ccccc3c2=O)CC1
 : 5%, -0.2%, -7, 0%
#16 NC(=O)c1cccnc1Nc1cccc(F)c1
 : 30%, 0.1%, -1, -33%
#17 Cc1ccnc(SCCn2c(N3CCCCC3)nc3c2c(=O)[nH]c(=O)n3C)n1
 : /, /, 0, -8%
#18 Cc1ccc2nc(NC(=O)[C@H](C)N3C(=O)C4CC=CCC4C3=O)sc2c1 (stereo not given in full)
 : 4%, -0.6%, -7, -31%
#19 CCCCN(C(=O)c1ccc(-c2ccc(Cl)cc2)o1)c1c(N)n(CCCC)c(=O)[nH]c1=O
 : 18%, ?, /, /
#20 O=C(CSc1nc2ccccc2[nH]1)NC1CCCc2ccccc21 (stereo not given)
 : 1%, -1.3%, 7, 27%
#21 O=C(CCN1CCCCCC1)Nc1ccc(F)c(F)c1
 : -2%, -0.7%, 11, -11%
#22 CC(=O)c1ccccc1OCC(O)CN1CCN(CCN2C(=O)c3cccc4cccc(c34)C2=O)CC1 (stereo not given)
 : ?, -1.5%, -14, 28%
#23 O=C(CCCCCNC(=O)c1ccccc1)N/N=C/c1ccc(O)cc1O
 : 3%, -3.0%, -8, -22%
#24 Cc1cc(C)c(C(=O)N2CCCC(CNS(=O)(=O)N(C)C)C2)o1 (stereo not given)
 : -3%, 6.0%, /, -6%
#25 CC1CCN(c2nnc(N3CCC(C)CC3)c3ccccc23)CC1
 : -4%, -2.5%, -4, -1%
#26 CSc1nc(C)cc(OCC(=O)N2CCOCC2)n1
 : 2%, -2.9%, -4, 0%
#27 C[C@H](CO)N1C[C@H](C)[C@@H](CN(C)C(=O)NC2CCCCC2)Oc2c(NC(=O)C3CC3)cccc2C1=O
 : 1%, -1.2%, /, /
#28 O=C(CN1CCN(C(=O)c2ccc(-c3nc4ccccc4s3)o2)CC1)Nc1ccc(F)cc1
 : -27%, 0.4%, /, /
#29 Cc1ccsc1C(=O)OCC(=O)c1ccc(OC(F)F)cc1
 : -3%, 4.0%, /, /
#30 COc1cccc(C(=O)NC(=S)Nc2ccc3[nH]c(=O)[nH]c3c2)c1
 : -4%, 5.8%, /, -29%

The listing continues.
Below each SMILES – Rango dissoc inh, Rango complex inh, GLA inh pH 4.5, miR-21 FLuc
#31 COc1ccc(/C=C/C(=O)NC(=S)NNC(=O)c2cccs2)cc1OC
 : -13%, -1.0%, -7, -7%
#32 COC(=O)CNC(=O)c1cn(CC(C)C)c(=O)c2cc(OC)c(OC)cc12
 : 2%, -0.9%, 1, 0%
#33 CS(=O)(=O)N1CCCC(C(=O)Nc2ccccc2C(F)(F)F)C1 (stereo not given)
 : 5%, -1.6%, /, 1%
#34 COc1cc(-c2ccc(NC(=O)CN3CCC(C)CC3)c(OC)c2)ccc1NC(=O)CN1CCC(C)CC1
 : -9%, ?, 7, -10%
#35 COc1ccc(CCNC(=O)C(=O)Nc2ccc3c(c2)OCCO3)cc1OC
 : -7%, -6.1%, 1[21.1 µM], -15%
#36 CSc1nc(-c2ccco2)nn1C(=O)c1ccco1
 : -5%, -6.7%, -4, -6%
#37 O=C(CN(C1CCCCC1)S(=O)(=O)c1ccc(Br)cc1)NCc1ccncc1
 : ?, 3.0%, -4, -3%
#38 CCn1c(SCC(=O)Nc2ccc(F)cc2)nnc1C1CC1
 : -5%, 0.1%, /, -19%
#39 O=C(CSc1nc2ccccc2s1)N1N=C(c2cccs2)CC1c1ccc(F)cc1 (stereo not given)
 : 28%, -4.2%, -18, 0%
#40 Cc1cc(NCCCN2CCOCC2)n2ncc(-c3ccc(Cl)cc3)c2n1
 : -7%, -0.4%, -3, -29%
#41 CCOC(=O)N1CCC(NC(=O)COc2cc(=O)n(C)c3ccccc23)CC1
 : 5%, 2.6%, -2, -1%
#42 COc1cccc(OCc2cc(C(=O)N3CCN(C4CCCC4)CC3)no2)c1
 : -8%, 5.0%, /, -7%
#43 CC(=O)c1ccc(Cc2ncc(C(F)(F)F)cc2Cl)s1
 : 6%, -2.2%, 3, 2%
#44 O=C(CSc1n[nH]c(=O)n1C1CC1)Nc1ccc(OC(F)(F)F)cc1
 : -2%, 4.3%, /, /
#45 Cc1ccc(NC(=O)COC(=O)c2c[nH]c3ccccc23)cc1C
 : -5%, 7.9%, /, /
#46 CCCC[C@@H]1CN=C(N)N1CC(C)(C)C
 : 5%, -6.0%, /, /
#47 COc1cccc(C(=O)Oc2cccc(N3C(=O)C4C5CC(C(Br)C5Br)C4C3=O)c2)c1 (stereo not given)
 : -12%, -4.8%, 8, -5%
#48 COc1ccc(-c2cc3c(=O)n(CC(=O)NCc4ccc(F)cc4)ncn3n2)cc1
 : -9%, -1.3%, /, -15%
#49 CCOC(=O)c1cc2nc(Nc3ccc(OC)cc3)sc2s1
 : -10%, ?, -1, -38%
#50 CCc1nnc(NC(=O)CSc2nnc(-c3ccccc3O)n2CC)s1
 : 14%, 3.8%, -1, 0%
#51 OCCCc1nc2n(n1)C(c1ccccc1Cl)C=C(c1cccs1)N2 (stereo not given)
 : ?, ?, 11, -12%
#52 CCN1CCN(Cc2nc3c(c(=O)n(C)c(=O)n3C)n2Cc2ccccc2Cl)CC1
 : /, /, -17, -2%
#53 CC1CCN(C(=O)CSc2nnc(CNC(=O)COc3ccc(Cl)cc3)o2)CC1
 : 15%, 7.9%, -1, 0%
#54 Cc1ccc2c(c1)NC(=O)C(CC(=O)NCCCN1CCN(c3cc(C)ccc3C)CC1)O2 (stereo not given)
 : 0%, 0.6%, 0, -4%
#55 COCCSc1nnc(NC(=O)C2CC(=O)N(C3CCCC3)C2)s1 (stereo not given)
 : 0%, 0.1%, /, 2%
#56 O=c1oc(Cc2ccccc2)nc2ccccc12
 : -8%, 0.0%, /, -33%
#57 COc1ccc(NC(=O)CN(C)C(=O)c2cc(C)on2)cc1
 : -7%, 0.3%, /, /
#58 CN(CC(=O)Nc1ccccc1Cl)CC(=O)Nc1c(F)cccc1F
 : 12%, 4.2%, 0, -3%
#59 O=C(COC(=O)/C=C/c1ccc(Cl)cc1)NCCC1=CCCCC1
 : -4%, -2.0%, -8, 2%
#60 c1ccc(-c2cn3nc4c(nc3n2)CCCC4)cc1
 : ?, ?, 3, 26%

Three entries from above, with bars between the fields.
cpd | Molecule | Rango dissoc inh | Rango complex inh | GLA inh pH 4.5 | miR-21 FLuc
47 | COc1cccc(C(=O)Oc2cccc(N3C(=O)C4C5CC(C(Br)C5Br)C4C3=O)c2)c1 (stereo not given) | -12% | -4.8% | 8 | -5%
56 | O=c1oc(Cc2ccccc2)nc2ccccc12 | -8% | 0.0% | / | -33%
35 | COc1ccc(CCNC(=O)C(=O)Nc2ccc3c(c2)OCCO3)cc1OC | -7% | -6.1% | 1[21.1 µM] | -15%

The list goes on.
Below each SMILES – Rango dissoc inh, Rango complex inh, GLA inh pH 4.5, miR-21 FLuc
#61 C/C(=N\OCC(=O)OCC(=O)NCc1ccccc1)c1ccc2c(c1)OCO2
 : -11%, -2.9%, /, /
#62 CCCCNC(=O)c1onc(CSc2cccc(OCC)c2)c1C(=O)O
 : -1%, -0.8%, -9, -16%
#63 CC(OC(=O)CNC(=O)c1ccc2ccccc2c1)C(=O)N(C)C1CCCCC1 (stereo not given)
 : -2%, -3.7%, /, /
#64 Cc1ccc(S(=O)(=O)NCc2nc3nc(C)cc(C)n3n2)c(C)c1
 : 46%, -2.4%, /, 1%&2%
#65 Cn1cnnc1SCC(=O)Nc1ccccc1C(=O)NC1CC1
 : 0%, -2.4%, 9, -1%
#66 COC(=O)c1c(-c2c(Cl)cccc2Cl)noc1NC(=O)NN1CCOCC1
 : 0%, -2.7%, -3, -5%
#67 Cc1ccn2c(-c3csc(NCc4ccco4)n3)c(C)nc2c1
 : -8%, 7.0%, -3, 18%
#68 CC(C)N(Cc1nccn1C)C(=O)c1ccc(OC2CCN(C(=O)C3CC3)CC2)cc1
 : -6%, 3.6%, 5, -1%
#69 O=C(c1ccc(Cl)c(S(=O)(=O)N2CCCCC2)c1)N1CCN(Cc2ccccc2)CC1
 : -9%, -1.7%, /, 1%
#70 O=C(Nc1c[nH]c(=O)[nH]c1=O)c1cccc([N+](=O)[O-])c1
 : 1%, 1.7%, /, -5%
#71 NC(=O)CN(c1ccc([N+](=O)[O-])cc1)S(=O)(=O)c1ccccc1
 : -3%, 11%, 10, -1%
#72 CC(OC(=O)Cc1ccccc1[N+](=O)[O-])C(=O)NC(=O)NC1CCCCC1 (stereo not given)
 : -2%, -1.8%, /, /
#73 N#C/C(=C\c1ccccc1)C(=O)Nc1cccnc1
 : -11%, -0.1%, -5, 1%
#74 CN=C1c2ccccc2CN1c1cccc(C(=O)OC)c1
 : -17%, 0.0%, -3, -21%

Molecules above that contain an aryl thioether with sulfur outside any ring:
Below each SMILES – Rango dissoc inh, Rango complex inh, GLA inh pH 4.5, miR-21 FLuc
#7 COc1ccc(CSc2nncn2N)cc1Br
 : 4%, 0.3%, 3, -15%
#17 Cc1ccnc(SCCn2c(N3CCCCC3)nc3c2c(=O)[nH]c(=O)n3C)n1
 : /, /, 0, -8%
#20 O=C(CSc1nc2ccccc2[nH]1)NC1CCCc2ccccc21 (stereo not given)
 : 1%, -1.3%, 7, 27%
#26 CSc1nc(C)cc(OCC(=O)N2CCOCC2)n1
 : 2%, -2.9%, -4, 0%
#36 CSc1nc(-c2ccco2)nn1C(=O)c1ccco1
 : -5%, -6.7%, -4, -6%
#38 CCn1c(SCC(=O)Nc2ccc(F)cc2)nnc1C1CC1
 : -5%, 0.1%, /, -19%
#39 O=C(CSc1nc2ccccc2s1)N1N=C(c2cccs2)CC1c1ccc(F)cc1 (stereo not given)
 : 28%, -4.2%, -18, 0%
#44 O=C(CSc1n[nH]c(=O)n1C1CC1)Nc1ccc(OC(F)(F)F)cc1
 : -2%, 4.3%, /, /
#50 CCc1nnc(NC(=O)CSc2nnc(-c3ccccc3O)n2CC)s1
 : 14%, 3.8%, -1, 0%
#53 CC1CCN(C(=O)CSc2nnc(CNC(=O)COc3ccc(Cl)cc3)o2)CC1
 : 15%, 7.9%, -1, 0%
#55 COCCSc1nnc(NC(=O)C2CC(=O)N(C3CCCC3)C2)s1 (stereo not given)
 : 0%, 0.1%, /, 2%
#62 CCCCNC(=O)c1onc(CSc2cccc(OCC)c2)c1C(=O)O
 : -1%, -0.8%, -9, -16%
#65 Cn1cnnc1SCC(=O)Nc1ccccc1C(=O)NC1CC1
 : 0%, -2.4%, 9, -1%
